Bioassay records: PubChem, several laboratories
Sa RN4220 lethal – growth inhibition of S. aureus RN4220, primary screen, OD600; inhibition, % (test concentration not listed); 330,000 tested, 0.33% active; 16 h; AID 1259311, 2017;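 active = z-score of -3 or lower and OD600 up to 0.18 on both plates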;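 also: plate controls were untreated cells for no effect and reference antibiotic for full effect; stock transfer was 100 nL into about 80 µL; one replicate is shown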
Mtb hypoxia inh – PubChem AID 1159583; M. tuberculosis hypoxia-regulated fluorescent reporter, fluorescence; fluorescence inhibition, % (concentration not given with the values); 300,000 tested, 0.1% active;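 active = 35 to 45% if threefold the growth effect, above 45% if 1.5-fold the growth effect; inactive = the rest, general growth blockers included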;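 also: wells of about 50 µL received 100 nL stock; 0% = vehicle wells and 100% = reference inhibitor wells; whole bacteria with a GFP reporter of the hypoxia response; strong numbers were not always called active; many hits fall short of the cut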
ugtP null kill – growth inhibition of ugtP-null S. aureus, primary screen, RN4220 ugtP deletion, OD600 | 16 h; some inactives read as strong as hits | growth inhibition, % (concentration not given with the values) | 330,000 tested, 0.54% active;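 active = z-score under -3 and OD600 up to 0.15 on both plates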;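 also: plate controls were untreated wells for no effect and antibiotic for full effect; wells of about 80 µL received 100 nL stock; the first replicate is given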
BJeLR lethal – MLPCN primary cell-based screen for lethality selective to Ras in HRASV12 cells; 300,000 tested, 0.17% active; BJeLR (HRASV12) viability, CellTiter-Glo ATP luminescence, 48 h; reference of the scale not given here; inhibition, % (test concentration not listed);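 active = replicate mean above 50%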;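 also: 50 nL library stock added to about 25 µL; numbers are from one replicate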
Bead autofluor – compound fluorescence in toxin protease inhibitor counterscreen. compound autofluorescence counterscreen, microsphere flow cytometry; stronger effect = higher value. fluorescence intensity (no concentration beside the values). 360,000 tested, 3.1% active. AID 624483;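 active = at least 3 SD above the mean of all compounds, about 16000 in these data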;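 also: 100 nL of 1 mM stock went into each well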
PrP 5UTR inh – inhibition of PrP 5' UTR reporter expression. cell-based PrP 5' UTR mRNA reporter, plate reader. inhibition, % (concentration not given with the values). 340,000 tested, 0.35% active. AID 488862, 2010;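 active = every replicate at 50% or more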;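 also: 0 = median of the neutral control wells; tested in H4 reporter cells; numbers are from one replicate; inactives centre near -14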
Mtb hypoxia inh growth – further read-out of Mtb hypoxia inh, marked with its call; growth inhibition, %; measured here: M. tuberculosis growth (absorbance);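 0% = vehicle and 100% = reference antibiotic; read after six days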
Starred values were filed as active, the others as inactive; · = no result given; & = joins results of further samples.

Order of values: Bead autofluor	PrP 5UTR inh	Mtb hypoxia inh	Sa RN4220 lethal	Mtb hypoxia inh growth	BJeLR lethal	ugtP null kill
#1 O=C(CSCc1ccccc1Cl)N/N=C/c1ccco1
  2568	-15	·	·	·	-8	·
#2 COC(=O)NN=Cc1ccc(Oc2ccccc2)cc1
  ·	·	0	-0.4	12	·	1
#3 CCCN1C(=O)SC(CC(=O)Nc2ccccc2C)C1=O (stereo not drawn)
  2692	-11	14	3.5	2	13	12
#4 CC(C)(C)c1nc2c(C#N)c(-c3ccc(Cl)cc3)ccn2n1
  2861	-21	12	6.3	10	-1	17
#5 CN(Cc1cccc2cnccc12)C(=O)c1cc(COc2ccc(F)cc2Cl)on1
  6009	-25	4	0.2	13	2	-11
#6 CCN(CC)c1ccc(C=NCCc2ccc(S(N)(=O)=O)cc2)cc1
  3744	19	21	2.1	6	-1	0
#7 CCCCNC(=O)CNC(=O)c1nn(-c2ccc(OC)cc2)c(=O)c2ccccc12
  3155	-1	3	0.7	-8	-10	7
#8 CC1=C(C(=O)OCc2ccccc2)C(c2ccccc2Cl)NC(=O)N1C (stereo not drawn)
  2946	-19	5	4.1	-1	-5	-7
#9 CC(=O)Nc1ccc(S(=O)(=O)/N=C2\C(=O)c3ccccc3C([O-])=C2n2cc[n+](-c3ccccn3)c2)cc1
  4872	-8	-5	1.5	-6	10	0
#10 Cc1cc(C(=O)CN2C(=O)c3ccccc3S2(=O)=O)c(C)n1CC1CCCO1 (stereo not drawn)
  9446	88*	6	6.5	7	-4	0
#11 COc1cc2c(cc1OC)CN(C(=O)c1sc(-c3cnccn3)nc1C)CC2
  7107	-22	0	4.4	10	-13	7
#12 CCC(C)[C@H](NC(=O)NCCCN1CCOCC1)C(=O)OC (stereo partly drawn)
  10769	-5	-4	0.4	7	-6	-3
#13 CCOC(=O)c1sc2ccccc2c1OC(=O)c1ccccc1
  4887	-21	·	7.4	·	4	9
#14 CCC(=O)Nc1cccc(NC(=S)NC(=O)c2cccs2)c1
  2568	-39	-4	4.1	3	15	5
#15 COc1cc(/C=C2/C(=N)N3N=C(C)SC3=NC2=O)ccc1OS(=O)(=O)c1ccc(C)cc1
  3640	-32	-4	0.0	-3	8	4
#16 CCCC(=O)Nc1cccc(NC(=O)c2ccc3c(c2)OCCO3)c1
  5704	-7	6	17	-5	3	-1
#17 Cc1ccc(NC(=O)CC2S/C(=N/N=C3CCCc4ccccc43)NC2=O)cc1 (stereo not drawn)
  ·	·	5	3.8	-2	·	2
#18 CCN(c1ccc(C)c(C)c1)S(=O)(=O)c1ccc2c(c1)CCN2C(=O)CCC(=O)O
  12888	-52	10	30	-3	-3	-6
#19 Cc1c(C)c2c(OCC(=O)N3CCC(C(=O)NCC(C)C)CC3)cc3c(c2oc1=O)CCC(C)(C)O3
  3890	-6	7	4.8	-2	-1	14
#20 O=C(Nn1c(SCc2ccc([N+](=O)[O-])cc2)nc2ccccc2c1=O)c1ccc(F)cc1
  9837	-39	2	63	2	3	15
#21 Cc1ccc(CNC(=O)CCS(=O)(=O)Cc2ccc(C)cc2)cc1
  5459	3	-6	-1.4	1	-1	-4
#22 C/C(=N\NC(=O)COc1cccc(Cl)c1)c1ccc2c(c1)OCCO2
  2572	-15	·	·	·	15	·
#23 CCCNC(=O)c1c(O)c2cccc3c2n(c1=O)CCC3
  3142	-10	1	-0.7	3	9	5
#24 CCCn1c(NC(=O)c2ccccc2)nc2ccccc21
  2953	-30	-2	-1.1	9	-2	-13
#25 O=C(c1cc2cc(Br)ccc2o1)N1CCCC1
  2376	-32	6	11	4	-1	-4
#26 Cc1ccc2[nH]cc(CCNC(=O)Nc3ccccc3)c2c1
  21739*	-19	4	3.5	5	8	-8
#27 Cc1cc(OCC(=O)NC(C)(C)C)ccc1Cl
  2420	-31	19	-3.2	12	10	-1
#28 Cc1ccc(Nc2nc3ccccc3o2)cc1F
  4663	-118	·	-8.1	·	0	0
#29 C=CCN1C(=O)CN=C1NCc1ccccc1
  5137	7	·	4.8	·	5	2
#30 O=C(C1=CC(c2coc3ccccc3c2=O)CC(OCCCCO)O1)N1CCOCC1 (stereo not drawn)
  ·	·	3&14	3.4&5.6	3&15	·	-1&6

Given with one line to a screen: entries from further up.
10: Cc1cc(C(=O)CN2C(=O)c3ccccc3S2(=O)=O)c(C)n1CC1CCCO1 (stereo not drawn)
11: COc1cc2c(cc1OC)CN(C(=O)c1sc(-c3cnccn3)nc1C)CC2
12: CCC(C)[C@H](NC(=O)NCCCN1CCOCC1)C(=O)OC (stereo partly drawn)
screen / no.,10,11,12
Bead autofluor,9446,7107,10769
PrP 5UTR inh,88*,-22,-5
Mtb hypoxia inh,6,0,-4
Sa RN4220 lethal,6.5,4.4,0.4
Mtb hypoxia inh growth,7,10,7
BJeLR lethal,-4,-13,-6
ugtP null kill,0,7,-3

The list continues:
Order of values: Bead autofluor	PrP 5UTR inh	Mtb hypoxia inh	Sa RN4220 lethal	Mtb hypoxia inh growth	BJeLR lethal	ugtP null kill
#31 COc1ccccc1N1CCN(C(=O)c2sc3nc(-c4ccc(F)cc4)cn3c2C)CC1
  5461	-2	6	14	5	-9	-5
#32 O=C(NCc1ccco1)c1cc2sccc2n1Cc1ccc(F)cc1
  20848*	-21	2	2.2	3	3	-1
#33 CC1CCC(=NNC(=O)Cc2ccccc2)CC1 (stereo not drawn)
  7928	-26	21	4.9	11	-4	5
#34 COC(C[C@@H]1O[C@@H]1C(=O)COCc1ccccc1)OC
  3039	-28	·	·	·	9	·
#35 O=C(NNC(=O)c1ccccc1O)c1cc2ccccc2o1
  5850	-37	8	11	-2	3	-18
#36 COC(=O)CC1=C(C(=O)OC)C(c2cccc(OCC(N)=O)c2)C(C#N)=C(N)O1 (stereo not drawn)
  4129	-14	·	1.8	·	1	-5
#37 O=C(COC(=O)c1cccc(O)c1)c1ccccc1
  6106	-78	3	0.3	0	-7	-1
#38 O=C(CC1Sc2ccccc2NC1=O)NNC(=O)Nc1ccc(Cl)cc1 (stereo not drawn)
  3478	-7	8	2.8	-1	-7	11
#39 O=C(Oc1ccc(NC(=O)c2cc3c(cc2Br)OCO3)cc1)c1ccccc1
  3155	1	8	4.8	0	2	11
#40 Cc1ccc(NC(=O)N2CCC(c3nc4c(nnn4Cc4cccc(Cl)c4)c(=O)[nH]3)CC2)cc1
  9870	-11	-10	-2.4	6	-1	75
#41 CC(C)C(NS(=O)(=O)c1cccc2nsnc12)C(=O)N1CCn2c1nc1ccccc12 (stereo not drawn)
  5754	-8	6	6.8	1	-3	9
#42 Cc1ccc(C2=CSC3=NNC4(CCCCC4)NN23)cc1
  4593	22	-2	-2.8	-12	-2	-11
#43 O=C(CSc1nnc2ccccn12)c1ccc2c(c1)OCCO2
  2619	-30	·	-0.2	·	-2	9
#44 Cn1cc(SCC(=O)Nc2nc3ccccc3s2)c2ccccc21
  2383	-13	-9	-0.6	5	-8	-12
#45 NS(=O)(=O)c1ccc(NC(=S)N2CCN(c3ccccc3)CC2)cc1
  1932	-9	10	4.0	11	19	6
#46 COC(=O)c1cccc(NC(=O)c2ccc(S(=O)(=O)N3CCN(C)CC3)cc2)c1
  23982*	-16	1	3.4	-3	7	15
#47 CCN1C(=O)C(CC(=O)Nc2c(C)cccc2C)Nc2cc(S(=O)(=O)N(C)C)ccc21 (stereo not drawn)
  3942	-4	-9	0.4	-7	-7	3
#48 N#Cc1cc(C#N)c(SCC(=O)NCC2CCCO2)nc1N (stereo not drawn)
  3782	-21	8	2.4	-6	5	0
#49 CCCOc1ccc(-c2c(C(=O)N/N=C(\C)c3ccncc3)nnn2-c2nonc2N)cc1
  4159	-20	·	·	·	-8	·
#50 CCOC(=O)C1(CCCc2ccccc2)CCN(C(=O)CN2C(=O)CSC2=O)CC1
  2204	-15	8	8.3	4	8	5
#51 O=C(NCc1cn2ccccc2n1)c1ccco1
  7147	-28	2	-14	10	1	-2
#52 COc1ccccc1/C=C/C=N/N1CCN(Cc2ccccc2)CC1
  2028	-19	·	·	·	2	·
#53 COc1ccc(NS(=O)(=O)c2cc([N+](=O)[O-])ccc2N/N=C/c2c(C)[nH]c3ccccc23)cc1
  9073	-14	10	-8.8	9	·	-12
#54 COc1ccc(C(CNC(=O)c2oc3ccc(Br)cc3c2C)N2CCCCC2)cc1 (stereo not drawn)
  4695	-51	0	-25	3	-9	-3
#55 Cc1ccn(-c2n[nH]c(C)c2[N+](=O)[O-])n1
  4932	-10	6	5.1	6	-13	5
#56 CCN1C(=O)C(=O)N(CC(=O)N(C)CC(=O)Nc2ccccc2C(F)(F)F)C1=O
  3514	-2	1	2.7	3	·	5
#57 COC(=O)C1=C(c2ccc(F)cc2OCc2ccccc2)CC2CCC1N2C(=O)NCc1ccc2c(c1)OCO2 (stereo not drawn)
  ·	·	3	-7.1	10	·	1
#58 CCC1CCCCN1S(=O)(=O)c1ccc(S(=O)(=O)N(Cc2ccccn2)CC2CCCO2)cc1 (stereo not drawn)
  2510	-8	-34	-0.1	-1	-7	2
#59 CC(C)(C(=O)c1ccccc1)/[N+]([O-])=C/c1ccccc1F
  9815	·	7	4.2	7	·	9
#60 Cn1c(SCC(=O)N2CC(=O)Nc3ccccc32)nc2ccccc2c1=O
  3616	-4	7	2.4	2	·	0
#61 Cc1noc(C)c1COC(=O)COc1ccc(C#N)cc1
  3451	-21	6	4.1	3	-1	2
#62 O=C(NC(=O)c1cccc(Cl)c1)OC[C@@H]1CCCN2CCCCC12 (stereo partly drawn)
  4394	4	6	-0.3	2	4	5
#63 CCc1nnc(NC(=O)C2COc3ccccc3O2)s1 (stereo not drawn)
  2682	-35	·	-3.1	·	-4	2
#64 COc1ccc(CCNC(=O)c2ccncc2)cc1OC
  4742	-10	·	-0.9	·	-5	0
#65 O=C(Nc1ccc(S(=O)(=O)C(F)F)cc1)c1cccc(S(=O)(=O)N2CCOCC2)c1
  7227	-17	·	-5.3	·	12	4
#66 COc1ccc(Cn2c(SCc3ccccc3C)nc3cc(OC)c(OC)cc3c2=N)cc1
  ·	-25	·	45	·	7	32
#67 Cn1c(=O)c([N+](=O)[O-])c(NCc2ccccc2Cl)c2ccccc21
  6270	-12	1	5.6	-10	1	-5
#68 Cc1ccc2c(c1)C(=C(C#N)C#N)C(=O)N2CCN1CCOCC1
  3877	-10	0	2.9	16	4	-2
#69 CN1c2ccccc2N(C)C1(C)c1cccc2ccccc12
  1941	-5	·	3.3	·	-2	5
#70 Cc1cccc(NC(=S)NNC(=O)c2ccccc2OC(F)F)c1
  7992	-12	14	1.8	14	-21	-3
#71 CN(C)c1ccc(C(=O)Nc2ccc(CN3CCS(=O)(=O)CC3)cc2)cc1
  5266	-35	6	2.5	9	3	-1
#72 Cc1ccccc1OCCCn1c(CO)nc2ccccc21
  4706	-31	9	1.8	16	13	9
#73 C[C@H](CO)N1C[C@H](C)[C@@H](CN(C)CC2CC2)Oc2c(NC(=O)Cc3ccccc3)cccc2C1=O
  2937	-16	5	-5.5	2	·	2
#74 FC(F)(F)c1cccc(-c2nnc(-c3ccccc3)c(N3CCOCC3)n2)c1
  15756	-17	1	0.6	17	7	-3
#75 COC(=O)C1CCN(C(=O)c2ccc(NC(C)=O)cc2)CC1
  22006*	-24	6	4.7	14	-7	4
#76 Cc1cccc(-c2noc(CCCC(=O)NCC3CCCO3)n2)c1 (stereo not drawn)
  5212	-3	7	-0.8	6	-4	10
#77 CC(=O)c1ccc(NC(=O)CSCCO)cc1
  19947*	-38	5	2.7	0	0	3
#78 CC(C)n1c(SCC(=O)Nc2nc3ccccc3s2)nc2c1c(=O)n(C)c(=O)n2C
  3478	-6	-9	7.8	14	4	-10
#79 O=C(CNc1ccc(C(F)(F)F)cc1)Nc1cccc(S(=O)(=O)N2CCCC2)c1
  3492	-21	5	-4.5	4	·	-9
#80 CCCn1c(NCc2ccc3c(c2)OCO3)nc2ccccc21
  10433	-15	-2	-2.1	6	-17	-6
#81 C=CCSc1nnc(-c2nnc(SCC=C)n2CC)n1CC
  4707	-3	·	-0.4	·	-5	3
#82 O=C(CCCC1=NS(=O)(=O)c2ccccc2N1)N1CCC2(CC1)OCCO2
  9750	-23	-3	-1.8	9	-22	-9
#83 O=C(NNS(=O)(=O)c1ccc(F)cc1)c1ccc2c(c1)OCO2
  5364	5	4	2.3	16	-7	-6
#84 O=C(N/N=C/c1ccco1)c1cccc([N+](=O)[O-])c1
  2092	4	·	·	·	-4	·
#85 NC(=O)CC(NC(=O)c1ccccc1)c1ccc(NCCN2CCCCC2)c([N+](=O)[O-])c1 (stereo not drawn)
  3351	-23	3	0.5	8	-5	-2
#86 O=C(CCN1c2ccccc2Sc2ccccc21)Nc1ccccc1
  4615	-11	·	1.8	·	1	10
